Calb biofilm kill = mixture kills Candida albicans biofilm cells; C. albicans biofilm persisters + clotrimazole, fluorescence viability; primary screen in compound mixtures of four per well; inhibition, % at 7.6 µM; actives 0.02% (n = 120,000); AID 1242;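 active means inhibition above 30.3% in the primary screen of four-compound pools, then above 30% when the compound was retested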;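 further: compounds exposed to preformed 24 h biofilms for 48 h; the number belongs to the whole pool; some results filed as inactive read as strong as hits; inactives centre near 12; 0% = biofilm with clotrimazole alone and 100% = kill control; retested singly at about 60 µM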
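Probe or stimulus – Clotrimazole 50 µg/mL co-treatment · System – C. albicans biofilms · Schedule – 24 h biofilm formation, then 48 h compound exposure, 37 °C · Evaluation – percent inhibition of biofilm viability · Technique – 2-h Alamar Blue fluorescence, 535/590 nm excitation/emission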
An asterisk follows results filed as active. The list is partial. The share of hits here may be higher or lower than overall.

SMILES | Calb biofilm kill
CC1CN(CC(=O)Nc2cc(S(=O)(=O)N3CCCC3)ccc2Cl)CC(C)O1 (stereo not given) | 15
CCOC(=O)/C(=N\Nc1ccc(Br)cc1)N1CC(C)OC(C)C1 (stereo not given) | 17
COc1cc(C(=O)Nc2nc(C)cc(C)n2)cc(OC)c1OC | 11
COc1cccc(C(=O)Nc2ccc(S(=O)(=O)Nc3nccc(C)n3)cc2)c1 | 10
C/C(=N\O)C(=O)Nc1ccccc1 | 21
CCc1ccc(OCC(=O)NC(NC(=S)Nc2ccccc2OC)C(Cl)(Cl)Cl)cc1 (stereo not given) | 14
c1ccc2c(C3=NNC(=NC4CCCCC4)SC3)c[nH]c2c1 | 11
CCc1nnc(NS(=O)(=O)c2ccc(NC(=S)NC(=O)/C=C/c3ccc([N+](=O)[O-])cc3)cc2)s1 | 2
O=C(CSc1ccc2nnc(CCNC(=O)c3ccccc3)n2n1)Nc1ccccc1 | 16
COCCn1c(SCC(=O)Nc2ccc(C)cc2C)nc2c(oc3ccccc32)c1=O | 6
Cn1cc(CCNC(=O)CC2C(=O)NCCN2Cc2cccc(Oc3ccccc3)c2)cn1 (stereo not given) | 7
COC(=O)c1c(NC(NC(C)=O)C(Cl)(Cl)Cl)sc2c1CCCC2 (stereo not given) | 16
COc1ccc(S(=O)(=O)N2CCCC2c2cccs2)cc1 (stereo not given) | 14
CCCn1nnnc1NCc1ccc(Cl)cc1Cl | 10
COc1ccc(C(=O)OCC(=O)NC(=O)NC2CCCC2)c(O)c1 | 9
O=C(CN1C(=O)S/C(=C/c2cc(Br)cs2)C1=O)N1CCOCC1 | 13
O=C(NCC(=O)N(Cc1cccs1)C(C(=O)NC1CCCCC1)c1ccco1)c1cccs1 (stereo not given) | 9
COc1ccc(S(=O)(=O)N2CCC(C(=O)NCc3cccs3)CC2)cc1 | -9
O=C(/C=C/c1ccco1)Nc1ccccc1C(=O)O | 5
Cc1ccc(NC(=O)c2ccc(OCC3CCCO3)cc2)cc1 (stereo not given) | 17
O=C(/C=C/Nc1ccc([N+](=O)[O-])cc1)c1ccc(Br)cc1 | 14
Cc1nc(N)sc1C(=O)N1N=N1 | 15
CCO[C@@H]1OC(C(=O)N2CCN(Cc3ccccc3)CC2)=C[C@H](c2ccc(Br)cc2)[C@H]1CCCO | 19
Cc1csc(SCC(=O)NC(C)c2ccccc2)n1 (stereo not given) | 13

A second format for part of the listing above.
> COC(=O)c1c(NC(NC(C)=O)C(Cl)(Cl)Cl)sc2c1CCCC2 (stereo not given)
  Calb biofilm kill: 16
> O=C(NCC(=O)N(Cc1cccs1)C(C(=O)NC1CCCCC1)c1ccco1)c1cccs1 (stereo not given)
  Calb biofilm kill: 9
> O=C(CSc1ccc2nnc(CCNC(=O)c3ccccc3)n2n1)Nc1ccccc1
  Calb biofilm kill: 16
> CCCn1nnnc1NCc1ccc(Cl)cc1Cl
  Calb biofilm kill: 10

Other entries follow.
SMILES | Calb biofilm kill
c1ccc2c(c1)Nc1cc3ccccc3cc1S2 | 5
CC1=NN(Cc2c(C)nn(Cc3ccccc3)c2C)C(C)(C)C1 | 16
O=C(N/N=C/c1ccc([N+](=O)[O-])cc1)c1cc(-c2ccc3c(c2)OCO3)n[nH]1 | 15
C=CCNC(=S)Nc1sc2c(c1C#N)CCCC2 | 15
NS(=O)(=O)c1ccc(N=Nc2c(=O)[nH]n3c(=O)c4c([nH]c23)CCCC4)cc1 | 11
COc1ccccc1Cc1nc(-c2ccncc2)no1 | 1
O=[N+]([O-])c1ccc2nc(-c3ccncc3)[nH]c2c1 | 9
COc1ccc(C2CC3(CC(C)(C)NC(=S)N3)Oc3cc(O)cc(C)c32)cc1 (stereo not given) | 18
N#Cc1c(-c2ccccc2)nc(SCC(=O)Nc2ccccc2F)[nH]c1=O | 5
COCCOC(=O)CSc1ncccc1-c1nc2cc(C)c(C)cc2[nH]1 | 13
CCOc1ccc(N/C=C/C(=O)c2ccccc2)c([N+](=O)[O-])c1 | 9
COc1ccccc1N1CCN(C(=S)Nc2ccc3nc(N4CCOCC4)cc(C)c3c2)CC1 | 14
CCn1cc(C(=O)N2CCc3ccccc3C2)c(=O)c2cc(S(=O)(=O)N3CCCCC3)ccc21 | 10
COCC(=O)Nc1ccc2nc3n(c(=O)c2c1)CCCCC3 | 18
Cc1cccc(NC(=S)NNc2ncc(C(F)(F)F)cc2Cl)c1 | 15
COc1ccc(NC(=O)COC(=O)C2CCCCC2)c([N+](=O)[O-])c1 | 15
Cc1nc2ccc(NC(=O)c3cccc(S(=O)(=O)N(C)c4ccccc4)c3)cc2s1 | 13
CC(C)N1C(=O)/C(=C\c2nc3ccccc3c(=O)n2-c2ccccc2)c2ccccc21 | 5
CC(C)(C)C1CCC(=NNC(=O)C(=O)NC2CCCCC2)CC1 (stereo not given) | 14
COc1ccc(-c2nn(-c3ccccc3)cc2/C=N/Nc2ccc(S(N)(=O)=O)cc2[N+](=O)[O-])cc1OC | 12
COc1ccc2c(c1)O[C@@H](c1cccc(C(F)(F)F)c1)[C@H](OC(=O)NCCc1ccc(OC)c(OC)c1)C2=O | 8
O=C(CSc1nnc(-c2ccco2)n1Cc1ccccc1)NCc1ccccc1 | 12
CC(=O)c1cccc(NC(=S)NC(=O)c2ccc(Cl)cc2)c1 | 13
CNC(=S)NNc1nc(N2CCOCC2)nc(N2CCOCC2)n1 | -1
O=C(N/N=C/c1c(O)ccc2ccccc12)c1ccc[n+](CCO)c1 | 15
COc1ccc(/C=C(\C#N)C(=O)NCc2cccnc2)cc1OC | 15
O=C(N/N=C/c1ccc([N+](=O)[O-])o1)c1sc2ccccc2c1Cl | 21
Cc1c(NC(=O)c2ccc(Cl)s2)c(=O)n(-c2ccccc2)n1C | 8
CC(=O)NC(N(C#N)c1nc(Cl)nc(N(C)C)n1)C(Cl)(Cl)Cl (stereo not given) | 16
COc1cccc(N(C(=O)Cn2nnc(-c3ccc(C)o3)n2)C(C(=O)NC(C)(C)C)c2cccs2)c1 (stereo not given) | 8
N#CC1=C(N)NC(=S)C(C(N)=O)C1c1ccc(Cl)cc1Cl (stereo not given) | -21
O=C(Nc1ccccc1F)Oc1cccc(OC(=O)Nc2ccccc2F)c1 | 21
CCCCN(C)CCNC(=O)C(NC(=O)C1CCC(C)CC1)C(C)C (stereo not given) | 12
OCCNCC(O)Cn1c2ccccc2c2ccccc21 (stereo not given) | 2
CCOP(=O)(OCC)C(NC(=O)Nc1ccc(C)cc1)C(N)=O (stereo not given) | 17
CCOC(=O)c1c(NC(=O)CSc2nnc3c(Cl)cc(Cl)cn23)sc2c1CCC2 | 17
Cc1nc2cc(C(F)(F)F)ccc2n1C | 3
Cc1c(Cl)cccc1S(=O)(=O)Nc1ccnn1C | 19
O=c1c2nccnc2[nH]c(=S)n1Cc1ccccc1Cl | 12
C/C(=N\NC(=O)COc1ccccc1[N+](=O)[O-])c1cccs1 | 6
O=C(N/N=C/c1cc(Cl)cc([N+](=O)[O-])c1O)c1ccccc1NS(=O)(=O)c1cccs1 | 17
O=C(CSc1nc2ncc(Br)cc2[nH]1)c1cccc([N+](=O)[O-])c1 | 20
Cc1c(CCCN)c2ccccc2n1Cc1ccccc1 | 16
CCOC(=O)N1CCN(C(=S)Nc2ccc(C)cc2C)CC1 | 6
Cc1ccc(N=C2NC(=O)/C(=C\c3ccco3)S2)cc1 | 19
CC(=O)CCn1cnc([N+](=O)[O-])n1 | 17
CC1=C(C)CC(C(=O)NNC(=O)c2csc3c2CCC(C(C)(C)C)C3)C(C(=O)O)C1 (stereo not given) | 14
Cc1ccc(S(=O)(=O)N(CCCO)CC(O)CON=C2c3ccccc3-c3ccccc32)cc1 (stereo not given) | -5

Reformatted: 3 of the compounds above
SMILES: O=c1c2nccnc2[nH]c(=S)n1Cc1ccccc1Cl
  Calb biofilm kill = 12
SMILES: C/C(=N\NC(=O)COc1ccccc1[N+](=O)[O-])c1cccs1
  Calb biofilm kill = 6
SMILES: O=C(N/N=C/c1cc(Cl)cc([N+](=O)[O-])c1O)c1ccccc1NS(=O)(=O)c1cccs1
  Calb biofilm kill = 17

Next part:
SMILES | Calb biofilm kill
CCN(CC)S(=O)(=O)c1ccc(NC=C(C#N)C#N)cc1 | 26
CCCCNC(=O)/C=C/c1ccc(S(=O)(=O)Nc2ccc(OC)cc2)cc1 | 5
CCC(C)C(=O)Nc1cc([N+](=O)[O-])ccc1Cl (stereo not given) | -8
COc1ccc(/C=N/OCC(=O)N2CCCC2)c(OC)c1 | 13
CCC(=NCCc1c(C)[nH]c2ccccc12)C1=C(O)CC(c2ccccc2)CC1=O (stereo not given) | 13
Cc1n[nH]c(=S)n1-c1ccc(Cl)cc1 | 11
Cc1ccc([N+](=O)[O-])c(OCCN2C(=O)NC(C)(C)C2=O)c1 | -18
Cc1ccc(S(=O)(=O)N2C(=O)/C(=C3\SC(=S)NC3=O)c3ccccc32)cc1 | 10
Clc1ccc(-c2cn(-c3ccc(Cl)cc3)c3[n+]2CCCCC3)cc1 | 6
COc1cccc(NC(=S)N2CCCC2c2ccc(OC)c(OC)c2)c1 (stereo not given) | 10
COC(=O)c1ccc(CSc2nnc(-c3ccc4c(c3)OCO4)n2-c2ccccc2)o1 | 11
COc1cc(SC)ccc1C(=O)Nc1ccc(C)cc1C | 11
CCC1Oc2ccc(C)cc2N(CC(=O)N(Cc2ccc(C)o2)C2CC(C)(C)NC(C)(C)C2)C1=O (stereo not given) | 16
Cc1ccc(C)c(-n2ccnc2SCC(N)=O)c1 | 8
CCCN(CCC)S(=O)(=O)c1ccc(Cl)c([N+](=O)[O-])c1 | -11
COc1cc(OC)cc(C(=O)NCC(=O)OCC(=O)c2ccc3c(c2)-c2ccccc2C3)c1 | 15
Cn1cc(Cl)c(-c2n[nH]c(=S)n2-c2ccc(F)cc2)n1 | 9
O=C(N/N=C/c1sc(=O)[nH]c1-[n+]1ccccc1)c1ccccc1[O-] | 2
CCOc1ccc(Nc2nc(Cc3nnc(SCC(=O)N(CC)CC)n3C)cs2)cc1 | -11
CCOC(=O)C1=NN(C(C)=O)C2C(=O)N(CC)C(=O)C12 (stereo not given) | 22
C#CCOCCOCCOCCNc1nc(N2CCN(C(=O)[C@H](Cc3cc4ccccc4[nH]3)n3cc([C@@H](N)Cc4ccc(O)cc4)nn3)CC2)nc(N2CCN(C(=O)[C@H](Cc3cc4ccccc4[nH]3)n3cc([C@@H](N)CC(C)C)nn3)CC2)n1 | 10
COc1ccc(/C=N/NC(=O)c2cccc(NC(=O)c3ccc(F)cc3)c2)c(C(=O)O)c1OC | 4
Cc1ccc(C)c(CSc2nnc(C)c(=O)[nH]2)c1 | 3
CCOc1ccc2[nH]cc(S(=O)(=O)c3ccc(Cl)cc3)c(=O)c2c1 | 9
CN(C)S(=O)(=O)c1cccc(NC(=O)COC(=O)/C=C/c2ccco2)c1 | 12
COc1cccc(-c2nc(N)nc(SC)c2C#N)c1 | 18
COc1ccccc1N(CC(=O)NCC1CCCO1)C(=O)Cn1nnc(-c2cccs2)n1 (stereo not given) | 15
O=C1COc2ccc(S(=O)(=O)N3CCc4ccccc43)cc2N1 | 19
COc1ccc(CN(C(=O)c2cccc(OC)c2)C2CCS(=O)(=O)C2)cc1 (stereo not given) | 10
Cc1ccc(NC(=O)CSCC(=O)N2CCOCC2)cc1 | 14
C/C(Cc1ccccc1)=N\NC(=O)CNC(=O)c1ccccc1O | 20
Cc1nnc(-c2ccco2)c2cn(-c3cccc(Br)c3)nc12 | 17
COC(=O)c1ccc(C23CC4(C2)[C@H](CN(Cc2ccc(C(F)(F)F)cc2)[C@@H]4c2ccccc2)C3c2ccc(Cl)nc2)cc1 (stereo not given in full) | 17
O=C(NCCN1CCN(c2ccccc2)CC1)c1cccn2c(=O)c3ccccc3nc12 | 14
CC1(C)Cc2c(c(N3CCOCC3)nc3sc4c(NCC5CCCO5)nnnc4c23)CS1 (stereo not given) | -2
Cc1ccc(S(=O)(=O)CCC(=O)NCc2ccccc2Cl)cc1 | 9

Brought forward from above: two compounds, followed by the next part.
SMILES | Calb biofilm kill
CC1(C)Cc2c(c(N3CCOCC3)nc3sc4c(NCC5CCCO5)nnnc4c23)CS1 (stereo not given) | -2
Cc1ccc(S(=O)(=O)CCC(=O)NCc2ccccc2Cl)cc1 | 9
CCO[C@H]1OC(C(=O)O)=C[C@@H](c2ccc3c(c2)OCO3)[C@@H]1CCCO | 20
NNc1nc2c(Cl)cccc2s1 | 11
O=c1[nH]c2ccccc2n1CCCSCCCn1c(=O)[nH]c2ccccc21 | 7
CCc1ccc(C2CC(c3ccccc3)Nc3nc(N)nn32)cc1 (stereo not given) | 14
CN1CCN(/N=C/c2nc(-c3ccccc3)n3ccccc23)CC1 | -4
COc1ccc(/C=C(\C#N)C(=O)C(C)(C)n2cncn2)cc1 | 10
CCCCNC(=O)c1cc2cc(CC)ccc2[nH]1 | 31
C=CCN1C(=O)C2(NC(=O)c3ccccc3N2)c2ccccc21 (stereo not given) | 18
Cn1cc([C@@H]2C[C@H]3CN(C4CCCC4)C(=O)[C@]34CCCN24)c(-c2ccccc2)n1 | 4
COc1ccc(C(=O)CSc2nnc(-c3cc(C)on3)o2)cc1 | 12
O=C(Cn1[nH]c(=O)c2ccccc2c1=O)NNC(=O)c1ccccc1 | 16
Cc1nc2nc(C)c(CCC(=O)NC3CCCCC3)c(C)n2n1 | 15
CCc1nc(N)nc(N)c1-c1ccc(Cl)cc1 | 15
CC(=O)c1ccc(NC(=O)Nc2sc(NS(=O)(=O)c3ccccc3)nc2C)cc1 | 27
Cc1cccc(-n2ccnc2SCC(=O)O)c1C | 1
